VDR inh: Inhibitors of the vitamin D receptor (VDR): qHTS; Vitamin D3 receptor (Homo sapiens), P11473; VDR-SRC2-3 peptide fluorescence polarization, 2 h; Potency, µM, without a hit: max response, negative = inhibition, hits mostly inhibitors; hit rate 0.93% among 400,000; AID 504847, 2011; active = well fitted inhibition curve with a large enough effect; inconclusive = small, poorly fitted or top-dose-only effect, or another doubt; inactive = no such curve, though single readings can be large or run the other way; note: series mostly up to about 120 µM
Target sequence (P11473 whole entry, looked up): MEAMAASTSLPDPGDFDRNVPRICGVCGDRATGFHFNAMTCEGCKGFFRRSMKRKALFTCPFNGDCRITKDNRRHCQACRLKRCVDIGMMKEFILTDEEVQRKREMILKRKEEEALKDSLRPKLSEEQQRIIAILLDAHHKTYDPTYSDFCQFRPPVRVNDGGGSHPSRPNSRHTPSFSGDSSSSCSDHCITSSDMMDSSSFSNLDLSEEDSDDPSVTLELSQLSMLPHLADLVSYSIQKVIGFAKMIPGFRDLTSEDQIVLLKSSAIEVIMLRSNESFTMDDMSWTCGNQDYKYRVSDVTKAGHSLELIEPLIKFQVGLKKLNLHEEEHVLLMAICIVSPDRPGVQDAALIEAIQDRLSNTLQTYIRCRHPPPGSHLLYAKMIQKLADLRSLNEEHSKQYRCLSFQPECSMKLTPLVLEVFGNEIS
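Fluorescence polarization assay of small-molecule disruption of VDR binding to coregulator peptide SRC2-3. Compounds and controls pin-transferred, then read after 2 h incubation at ambient room temperature.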
* = called active by the depositor; ? = inconclusive; & = joins results of further samples. % is set by controls: 0 for no effect and ±100 for the full control effect; potency is the fitted concentration of half-maximal effect. Only part of the results is shown, so the mix of outcomes need not match the whole.

VDR inh	Molecule
-4%	C=C1CCN(C(C)C(=O)OCc2ccc(C)cc2)S(=O)(=O)c2ccccc21 (stereo not drawn)
4%	CCOc1cc(-c2ccc(OC(=O)c3ccccc3)c(OC)c2)cc(=O)c2c(C)oc(C)c12
8%	CCOC(=O)C(Cc1ccc(NC(=O)/C(=C/c2ccc(OC(C)=O)cc2)NC(C)=O)cc1)N1C(=O)c2ccccc2C1=O (stereo not drawn)
-9%	O=C(NCCc1ccccc1)c1ccccc1F
-13%	COc1ccccc1C(=O)NCCC(=O)NCC(c1ccco1)N1CCCC1 (stereo not drawn)
0%	O=C1CS/C(=N\N=C\c2ccco2)N1c1ccccc1
3%	CCN(CC)CC(O)COC(c1ccccc1)c1ccccc1 (stereo not drawn)
-13%	CN(C(=O)CSc1nnc(-c2ccco2)n1N)C1CCCCC1
-12%	Cc1nc2sc3c(c2c(=O)o1)CCCC3
-24%	O=C(COC(=O)c1ccc2c(=O)n3c(nc2c1)CCC3)Nc1ccccc1F
11%	CCN(CC)c1ccc(-c2nc(-c3ccccc3C)no2)cc1[N+](=O)[O-]
15%	NS(=O)(=O)c1ccc(CNC(=O)c2cc(-c3cccnc3)nc3ccc(Cl)cc23)cc1
-11%&0%	COc1cc(NS(=O)(=O)c2ccc(N)cc2)nc(OC)n1
15%	CN1CCCN(C(=O)c2ccccc2Cl)CC1
3%	Cc1cccc(NC(=O)CNC(=O)COc2cccnc2[N+](=O)[O-])c1C
-10%	O=C1C2CCCN2C(c2cccc(F)c2)N1c1cccc(Cl)c1 (stereo not drawn)
-8%	COCCN(CC(=O)Nc1cccc(C)c1C)C(=O)c1ccc(-n2cccn2)cc1
0%	O=C(CSc1nc(O)c(Cc2ccccc2)c(=O)[nH]1)N1CCOCC1
-11%	Cc1ccc(S(=O)(=O)CCC(=O)OCC(=O)NCC(=O)Nc2cccc(C)c2C)cc1
-3%	O=C(NCc1ccc(F)cc1)c1ccc(CS(=O)Cc2ccccc2Cl)o1 (stereo not drawn)
4%&-6%	NS(=O)(=O)c1cc(C(=O)O)cc(N2CCCC2)c1Oc1ccccc1
-9%	Cc1ccc(SCCNS(C)(=O)=O)cc1
-5%	Cn1cnc(S(=O)(=O)N2CCc3ccccc32)c1
-11%	CCOC(=O)CSc1ccc2ccccc2n1
1%	CCOC(=O)c1ccc(-c2cccc(C(F)(F)F)c2)nc1C
-11%	COc1cc(/C=C/C(=O)N2CCCC2)cc(OC)c1OC
10%	COc1ccc(C(=O)NC2=C(C#N)CCC2)cc1OC
2%	O=C(c1ccco1)N(CC1CCCO1)c1nc(-c2ccccc2)cs1 (stereo not drawn)
0%	CN(Cc1ccco1)C(=O)c1cc2c(s1)-c1ccc(Cl)cc1S(=O)(=O)C2
-2%	Cc1cc(Cl)ccc1NC(=O)c1ccc2c(c1)CCN2S(C)(=O)=O
5%	CC(C)C[C@@H](CC(=O)N[C@@H](CCC(=O)O)CC(=O)O)NC(=O)[C@@H]1CCCC[C@H]1NC(=O)C[C@H](CCCN)NC(=O)C[C@H](Cc1ccccc1)NC(=O)[C@@H]1CNCC[C@H]1N
6%	O=C1OCc2ccc(NS(=O)(=O)c3ccc(C(F)(F)F)cc3)cc21
3%	COC(=O)c1sccc1S(=O)(=O)N(CC(=O)NCc1ccc(F)cc1)c1ccccc1
7%	CC(=Nc1cccc(O)c1)c1sc2ccccc2c1O
-3%	Cc1cc(C)cc(Nc2ncc3c(n2)CCCC3=O)c1
-7%	CSc1nsc(SCC(=O)Nc2nc3ccccc3s2)n1
1%	O=C(O)CC1(CC(=O)Nc2cccc(C(F)(F)F)c2)CCCC1
7%	COc1ccccc1C(=O)N/N=C(\C)CC(=O)Nc1ccc(Cl)cn1
13%	Cc1[nH]n(-c2ccccc2)c(=O)c1N=Nc1c(O)cc(S(=O)(=O)N(C)C)c2ccccc12
-5%	CC(=O)Oc1ccc(NC(=O)Cc2ccccc2)c(C(=O)O)c1
7%	COc1cc(NC(=S)N2CCCC(CO)C2)cc(OC)c1 (stereo not drawn)
?	Cc1ccc(N2CC(C(=O)NCCS(=O)(=O)N3CCN(c4ccccc4F)CC3)CC2=O)cc1 (stereo not drawn)
4%	Nc1nc(SCC(=O)Nc2cc(C(F)(F)F)ccc2N2CCOCC2)n[nH]1
-12%	Cc1ccc(NC(=O)CC2S/C(=N/N=C3\CCCc4ccccc43)NC2=O)cc1 (stereo not drawn)
9%	CCN(CC)C(=O)C(C)OC(=O)COc1ccc(Cl)cc1C (stereo not drawn)
-4%	CCOc1ccc(Br)cc1S(=O)(=O)NC1CCCC1
-26%	CCN1C(=O)[C@H]2[C@@H](c3ccc(-c4ccc(C(C)=O)cc4)cc3)N3CCC[C@@]3(C(=O)OC)[C@H]2C1=O
-8%	CCOC(=O)c1ccc(N2C(=O)C3C(C2=O)C(C(=O)c2ccc(Cl)cc2)N2CCCC32)cc1 (stereo not drawn)
?	CCCCCC(O)(CCN1CCCCC1)c1ccc(OCC)cc1 (stereo not drawn)
-18%	Cc1c(C(=O)NCCSCc2c(F)cccc2Cl)cnn1-c1ccc(Cl)cc1

Next results.
VDR inh	Molecule
10%	C[C@H]1CN(S(=O)(=O)c2ccc3c(c2)OCCO3)CCN1S(=O)(=O)c1c(F)cccc1F
-15%	CC(C)CCNC(=O)C(NS(=O)(=O)c1ccc2c(c1)c(=O)n(C)c(=O)n2C)c1ccccc1 (stereo not drawn)
13%	COc1ccccc1NC(=O)CSC1=Nc2ccccc2C2=NC(CC(=O)NCc3cccs3)C(=O)N12 (stereo not drawn)
14%	CCC(Sc1nc2ccc(N)cc2s1)C(=O)Nc1nccs1 (stereo not drawn)
-1%	CCCC(=O)Nc1ccc(C(=O)Nc2nc(CC(=O)OCC)cs2)cc1
4%	O=C(Nc1nnc(-c2ccncc2)o1)c1ccc2ccccc2c1
21%	C/C(=N/NC(=O)Cc1cccc2ccccc12)c1cccs1
-12%	CCOc1ccc(C)cc1S(=O)(=O)Nc1ccc(Cl)cn1
0%	OC(COc1ccc(Br)cc1)Cn1ccnc1 (stereo not drawn)
1%	CC(=O)c1ccccc1OCCCN1CCCCC1
1%	Cc1oc2c(CN3CCCCC3C)c(O)ccc2c(=O)c1-c1ccc(Br)cc1 (stereo not drawn)
8%	NS(=O)(=O)c1ccc(-n2nncc2-c2ccco2)cc1
-23%	COc1ccc(NC(=O)CN(C)C(=O)CN2C(=O)NC3(CCCC3)C2=O)cc1
24%	CNc1ccc(/C=C(\C#N)C(=O)Nc2ccccn2)cc1[N+](=O)[O-]
-6%	O=c1c2c(n3nnnc3n1Cc1ccccc1)-c1ccccc1CC21CCCC1
9%	CC(C)C[C@@H]1NC(=O)N(CCCn2ccnc2)C1=O
-10%	COc1ccc(-n2c3c(cc(-c4nc(-c5ccc(Cl)cc5)cs4)c2=O)C(=O)CC(C)(C)C3)cc1
?	O=C(NNc1ccc(Cl)cc1)c1sccc1Cl
0%	CCn1c(=O)c2c(nc3n2CCS3)n(C)c1=O
9%	CN(C)Cc1c(O)ccc2occ(C(=O)c3ccccc3)c12
-23%	OCC[C@H]1C[C@@H](O)[C@H](O)[C@]2(Cc3ccccc3CCO2)O1
3%	CCCOc1ncnc2c1[nH]c1ccccc12
-13%	COC(=O)[C@H](CC(C)C)NS(=O)(=O)c1ccccc1
-1%	COc1cc([C@H]2[C@@H]3CCCC[C@]3(O)CCN2Cc2ccccc2F)ccc1O
-6%	COC(=O)N1CCC2(CC1)CN(c1ccccc1)C2

Three structures out of the list, ordered by heavy-atom count, low to high.
VDR inh	Molecule
-12%	CCOc1ccc(C)cc1S(=O)(=O)Nc1ccc(Cl)cn1
9%	CN(C)Cc1c(O)ccc2occ(C(=O)c3ccccc3)c12
10%	C[C@H]1CN(S(=O)(=O)c2ccc3c(c2)OCCO3)CCN1S(=O)(=O)c1c(F)cccc1F

A portion taken from the entries so far, for reference:
VDR inh	Molecule
-10%	COc1ccc(-n2c3c(cc(-c4nc(-c5ccc(Cl)cc5)cs4)c2=O)C(=O)CC(C)(C)C3)cc1
?	O=C(NNc1ccc(Cl)cc1)c1sccc1Cl
0%	CCn1c(=O)c2c(nc3n2CCS3)n(C)c1=O
9%	CN(C)Cc1c(O)ccc2occ(C(=O)c3ccccc3)c12
-23%	OCC[C@H]1C[C@@H](O)[C@H](O)[C@]2(Cc3ccccc3CCO2)O1
3%	CCCOc1ncnc2c1[nH]c1ccccc12

Carrying on:
VDR inh	Molecule
?	CC(C)(C)C(=O)Nc1nc2c(s1)COc1ccccc1-2
-8%	COc1ccc(N2CCN(C(=O)CCCSc3nc4ccccc4[nH]3)CC2)cc1
-7%	COC(=O)C(C)Sc1nnc(Cc2cc(=O)[nH]c(=O)[nH]2)n1-c1cccc(OC)c1 (stereo not drawn)
3%	Cc1ccc(NC(=O)O/N=C/c2ccc(Br)cc2)cc1
17%	COc1cc(C(=O)Nc2sc(C)c(C)c2C(=O)O)cc(OC)c1OC
0%	CN(C)/C=N/c1sc2c(c1C#N)CCC2
11%	Cc1ccc(C(CC(=O)O)NC(=O)c2ccc(S(=O)(=O)N3CCCC3)cc2)cc1 (stereo not drawn)
7%	CCOc1ccc(CCNC(=O)COC(=O)c2cccc(N(C)C)c2)cc1OCC
14%	Cc1ccc(S(=O)(=O)Oc2ccc(/C=N/NC(=O)c3c(Cl)cnn3C)cc2)cc1
4%	COc1ccc(/C=C2\Oc3cc(OCC(N)=O)ccc3C2=O)cc1OC
-9%	FC(F)(F)c1cc(CCN2CCNC[C@@H]2c2ccccc2)cc(C(F)(F)F)c1
15%	COc1ccc(Cl)c2sc(NC(=O)c3ccc(S(=O)(=O)N4CCCC4)cc3)nc12
-6%	CCCCN(CC)CCNC(=O)c1cc2c(=O)n(C)c3ccccc3c2s1
-1%	CCOc1ccc(C(=O)Nc2ccc(S(=O)(=O)N3CCOCC3)cc2)cc1OCC
-22%	Oc1ccccc1C=NCC(O)c1ccccc1 (stereo not drawn)
-3%	CCOC(=O)C1CCN(C(=O)CCCn2c(=O)c3cccn3c3cccnc32)CC1
7%	CCC(=O)N[C@@H]1Cc2ccccc2[C@@H](c2ccccc2)C1
-16%	CC(NC(=O)C1CCN(S(=O)(=O)c2cccs2)CC1)c1cccc(Cl)c1 (stereo not drawn)
8%	N/C(=N\OC(=O)CCc1ccccc1)c1cccc(Br)c1
-5%	O=C(CCCCCN1C(=O)[C@@H]2Cc3ccccc3CN2C1=O)N[C@@H](Cc1ccc(O)cc1)C(=O)O
0%	O=C(NCCO)C(F)(F)C(F)(F)C(F)(F)OC(F)(C(=O)NCCO)C(F)(F)F (stereo not drawn)
3%	Fc1ccccc1Cc1noc(CN(Cc2ccccn2)CC2CCCO2)n1 (stereo not drawn)
7%	O=C(Nc1cccc(S(=O)(=O)N2CCOCC2)c1)c1cnccn1
6%	O=C(CCc1ccccn1)N1CCCC(Nc2ccc(F)cc2)C1 (stereo not drawn)
-4%	O=C(NCc1ccccc1)N1CCn2c(nc3ccccc32)C1
-9%	Cc1oc(-c2ccccc2F)nc1CSCC(=O)NCc1ccccc1
7%	Cc1cc(/C=C(\C#N)C(=O)NC2CC2)c(C)[nH]1
4%	NCCC[C@@H](CC(=O)N[C@@H]1CCNC[C@H]1C(=O)N[C@H](CC(=O)N[C@@H](CCC(=O)O)CC(=O)O)Cc1ccccc1)NC(=O)C[C@H](Cc1ccccc1)NC(=O)[C@@H]1CCCC[C@H]1N
2%	COc1cc(OC)c(NC(=O)CCNS(=O)(=O)c2ccc3c(c2)CC(C)N3C(C)=O)cc1Cl (stereo not drawn)
9%	COc1ccc(-c2nnn(CC(=O)N3CCN(c4ccccc4OC)CC3)n2)cc1OC
2%	C=CCc1cc(/C=C2/NC(=O)N(CC)C2=O)cc(OCC)c1OCc1ccc(C(=O)O)cc1
-28%	Cc1ccc(NCN2C(=O)C(=O)c3ccccc32)nc1
5%	C/C(=N\OCC(=O)OCC(=O)NC(=O)c1ccc(OC(F)F)cc1)c1ccc2c(c1)OCO2
5%	COc1cc(C2CC(=O)c3cnc(NC(C)=O)nc3C2)cc(OC)c1OC (stereo not drawn)
4%	COc1cccc(N=c2oc3ccccc3cc2-c2nc3ccccc3[nH]2)c1
1%	Cc1ccc(S(=O)(=O)Nc2ccc3c(c2)nc(CN2CCCC2)n3C)cc1
5%	O=C1C(=O)N(CCN2CCOCC2)C(c2cccc(Cl)c2)/C1=C(/O)c1ccc2c(c1)OCO2 (stereo not drawn)
1%	CSc1nnnc2ccccc12
1%	O=C(C1CCCCC1)N1CCC(c2nc3ccccc3[nH]2)CC1
-17%	CCc1nnc(NC(=O)[C@@H](NC(=O)c2cccc(C)c2)C(C)C)s1
-12%	COc1ccc(-c2cnc(OC(C)(C)C)nc2OC(C)(C)C)cc1OC
-4%	CC(C)c1ccc(NS(=O)(=O)c2cn(C)c(=O)n(C)c2=O)cc1
6%	COc1ccc(NC(=O)CN2C(=O)C3(SCC(=O)N3c3ccccc3)c3ccccc32)cc1Cl (stereo not drawn)
?	Cc1cnc(CNc2ccnc(-c3ccoc3)n2)cn1
-2%	COc1ccccc1N1CCN(C(=O)c2cc3c(=O)n4ccccc4nc3s2)CC1
0%	COc1cc(OC)c(-c2nc3cnccc3n2C)cc1OC

In the list so far, five contain bromine:
VDR inh	Molecule
-4%	CCOc1ccc(Br)cc1S(=O)(=O)NC1CCCC1
0%	OC(COc1ccc(Br)cc1)Cn1ccnc1 (stereo not drawn)
1%	Cc1oc2c(CN3CCCCC3C)c(O)ccc2c(=O)c1-c1ccc(Br)cc1 (stereo not drawn)
3%	Cc1ccc(NC(=O)O/N=C/c2ccc(Br)cc2)cc1
8%	N/C(=N\OC(=O)CCc1ccccc1)c1cccc(Br)c1

Source: PubChem (National Center for Advancing Translational Sciences (NCATS))
